miR-21 reporter: qHTS Assay for Modulators of miRNAs and/orActivators of miR-21. HeLa miR-21 FLuc reporter, luciferase, 48 h. AID 2288, 2010. 340,000 tested, under 10 active. Potency, µM (series often up to 38.3 µM), for the others: at the top dose reporter change, positive = more light; active = well fitted rising curve with a large enough effect; inconclusive = small, poorly fitted or top-dose-only effect; inactive = no such curve, though single readings can be large or run the other way;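 also: % of control where 0% means no effect; miR-21 action dims this reporter so a rising signal means less miR-21 action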
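HeLa cells stably expressing CMV-driven firefly luciferase with a downstream miR-21 binding sequence, endogenously expressing miR-21, were treated with titrations (up to about 40uM final) for 48 hours at 37 degree Celsius. Luciferase luminescence was read after lysis.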
Rango-impB inh: qHTS Assay for Inhibitors of Rango (Ran-regulated importin-beta cargo) - Importin beta complex formation; Potency, µM (top dose mostly 92.2 µM), inactives show at the highest dose inhibition of complex formation; hit rate 0.031% among 340,000; Importin subunit beta-1 (Homo sapiens), Q14974; Rango CFP/YFP FRET sensor + importin beta, 45 min; AID 540263, 2011; active = rising FRET ratio curve, often small or poorly fitted; inconclusive = mostly compound fluorescence or quenching in the first reads; inactive = flat curves in all reads;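 also: potency is read from the fitted curve at half-maximal effect; 0% = DMSO wells and 100% = buffer wells lacking importin beta; nearly all actives have a fitted effect of over 15% in size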
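FRET biosensor (snurportin 1 IBB flanked by EYFP and cerulean), 50 nM, with compound 5 min, then 0.125 microM importin beta in PBS, 1 mM DTT, 0.02% Tween-20, 0.1% BSA. CFP/YFP ratio read after 45 min at room temperature; pre-read flags interference.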
GLA inh pH 4.5: qHTS Assay for Inhibitors of Human alpha-Galactosidase at pH 4.5; Alpha-galactosidase A (Homo sapiens), P06280; purified enzyme, 4-MU-alpha-Gal fluorescence, pH 4.5; activity change, negative = inhibition, % at 105 µM; 230,000 tested, under 10 active; inconclusive = small, poorly fitted or top-dose-only inhibition, or a rising curve; inactive = flat fitted curve, though single readings scatter; no compound was filed as active;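 also: 0% = full activity with enzyme and -100% = basal without enzyme; dose as in the result columns while the protocol names 77 µM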
Target sequence (P06280 whole entry, looked up): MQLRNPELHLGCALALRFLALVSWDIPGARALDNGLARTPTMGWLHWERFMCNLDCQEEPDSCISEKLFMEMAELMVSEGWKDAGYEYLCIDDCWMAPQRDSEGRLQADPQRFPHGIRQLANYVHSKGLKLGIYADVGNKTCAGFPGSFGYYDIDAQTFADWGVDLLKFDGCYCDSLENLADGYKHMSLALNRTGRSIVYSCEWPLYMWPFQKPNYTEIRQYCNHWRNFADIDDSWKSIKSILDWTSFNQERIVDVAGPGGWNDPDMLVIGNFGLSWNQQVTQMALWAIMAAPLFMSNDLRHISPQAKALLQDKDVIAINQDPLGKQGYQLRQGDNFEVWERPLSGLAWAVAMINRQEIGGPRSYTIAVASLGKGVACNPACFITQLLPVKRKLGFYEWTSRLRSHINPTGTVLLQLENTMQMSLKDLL
Rango dissoc inh: qHTS Assay for Inhibitors of RanGTP induced Rango (Ran-regulated importin-beta cargo) - Importin beta complex dissociation; Snurportin-1 (Homo sapiens) + GTP-binding nuclear protein Ran (Homo sapiens) + Importin …; Biochemical FRET Rango-importin beta, RanGTP-induced dissociation; Potency, µM (doses to about 46.1 µM), for inactives: top-dose activity change, negative = inhibition; hit rate 0.071% among 340,000; active means falling FRET ratio curve, often poorly fitted, with flat reads before Ran was added; inconclusive means other falling curves, or compound fluorescence or quenching; inactive means flat or rising ratio curve;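 also: potency is read from the fitted curve at half-maximal effect; % of control where 0% means no effect; nearly all actives have a fitted effect of over 45% in size; -100% = wells without RanGTP and RCC1; the record marks most hits as doubtful in a second field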
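Rango (0.1 uM)–importin beta (0.25 uM) complex; RanGTP-RCC1 trigger; 45 min RT; CFP/YFP FRET read.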
Starred values were filed as active, the others as inactive; ? = inconclusive; nt = no result given; & = joins results of further samples; [ ] = remark or other dose.

no.	miR-21 reporter	Rango-impB inh	GLA inh pH 4.5	Rango dissoc inh	mol
1	0%	-2.0%	nt	0%	CN1CCN(C(=O)C2CC(=O)N(c3ccc(Cl)cc3)C2)CC1 (stereo unspecified)
2	-1%	7.3%	nt	3%	Cc1ccc(NC(=O)[C@@]2(CC(=O)O)CC(/C=C/c3ccccc3)=NO2)c(C)c1
3	0%	-2.5%	-24[21.1 µM]	-4%	CC(C)CN(CCCNC(=O)CN1C(=O)COc2ccc(S(=O)(=O)N3CCCC3)cc21)CC(C)C
4	-2%	?	2	?	CCC1c2ccc(C)n2CCN1C(=O)Nc1ccccc1C(=O)OC (stereo unspecified)
5	-4%	-4.3%	-7	-7%	Nc1cc(N)nc(SCC(=O)Nc2ccccc2N2CCOCC2)n1
6	-1%	1.0%	-30	-16%	Cc1cccc(/C=N\NC(=O)c2ccccc2-n2cccc2)c1
7	3%	-0.3%	nt	0%	Cc1ccc(OCCC(=O)Nc2ccccc2C(=O)NC2CC2)cc1
8	0%	-3.5%	-3	6%	COc1ccc(-c2nnc(SCC(=O)OC3CCCCC3)o2)cc1OC
9	nt	0.5%	nt	0%	COC(=O)c1cc2ccc(OC)cc2c2cc(OC)c(OC)cc12
10	nt	5.3%	nt	2%	Cc1nc(N)nc(N)c1-c1ccc(Cl)c(Cl)c1

Following part.
no.	miR-21 reporter	Rango-impB inh	GLA inh pH 4.5	Rango dissoc inh	mol
11	5%	-0.1%	nt	8%	CCCc1nnc(SCC(=O)Nc2ccc(OC)cc2)o1
12	2%	-5.0%	nt	0%	O=S1(=O)CCO[C@H]2Cc3ccccc3[C@H]2N1Cc1cccc(F)c1
13	-2%	-4.2%	5	2%	CCOC(=O)C1/C(=N\O)CC(C)(O)C(C(=O)OCC)C1c1ccc(OC)c(OC)c1 (stereo unspecified)
14	-5%	?	8	-3%	COc1ccc(NC(=O)C2CCC(C)(C(=O)O)C2(C)C)cc1 (stereo unspecified)
15	24%	0.2%	-5	-7%	O=C(Nc1cccnc1Cl)c1cc([N+](=O)[O-])ccc1Cl
16	2%	0.4%	-4	3%	CCOC(=O)CCCCC(=O)c1[nH]c(=O)[nH]c1CSc1nc(-c2ccccc2)c(C#N)c(=O)[nH]1
17	-1%	-3.1%	3	1%	COC(=O)NC(NS(=O)(=O)c1ccccc1)(C(=O)OC)C(F)(F)F (stereo unspecified)
18	13%	-3.7%	nt	-2%	CC(=O)Nc1cccc(NC(=O)CSc2nccn2Cc2ccc(F)cc2)c1
19	1%	-0.3%	8	13%	Cc1ccccc1C(=O)N1CCC(C(=O)Nc2ccc3c(c2)OCCO3)CC1
20	nt	-2.3%	nt	-1%	CCCCCN(C(=O)CCC(=O)OCc1cccc(Br)c1)c1c(N)n(CCCC)c(=O)[nH]c1=O

More results follow.
no.	miR-21 reporter	Rango-impB inh	GLA inh pH 4.5	Rango dissoc inh	mol
21	-2%	-3.9%	-2	-5%	Cc1c(-n2c(-c3ccccc3Cl)n[nH]c2=S)c(=O)n(-c2ccccc2)n1C
22	nt	-1.7%	nt	1%	Cc1ccc(S(=O)(=O)N2CCN(C(=O)COC(=O)C3(C)CC3(Cl)Cl)CC2)c(C)c1 (stereo unspecified)
23	?	?	-11	?	Cc1ccc(C(C)C)c(OCc2ccc(C(=O)N/N=C/c3ccc(O)cc3O)cc2)c1
24	-10%	-1.3%	4	-4%	COC(=O)c1cc(NS(=O)(=O)c2ccc(NC(C)=O)cc2)ccc1Cl
25	-2%	0.0%	-2	-17%	CC(=O)c1c(N2CCCCC2)nc(=O)n(-c2ccccc2)c1C
26	2%	2.7%	7	5%	O=c1c(Cc2ccc(F)cc2)c(O)ccn1Cc1ccco1
27	nt	2.7%	nt	5%	O=C(O)C1(Nc2ccc([N+](=O)[O-])cc2[N+](=O)[O-])CCCC1
28	-38%	3.5%	7	-2%	CCOC(=O)c1sc(-c2ccccn2)nc1C
29	-1%	4.3%	0	9%	O=C(C1=C[C@H](c2ccc(C(F)(F)F)cc2)C[C@H](OCc2ccc(CO)cc2)O1)N1CCOCC1
30	-8%	-2.9%	11	-10%	O=C(OCC(=O)N1CCOCC1)c1ccccc1SCC(=O)N1CCCC1

Going on with the list.
no.	miR-21 reporter	Rango-impB inh	GLA inh pH 4.5	Rango dissoc inh	mol
31	-30%	2.1%	-5	20%	COC(=O)c1ccc(NC(=O)Nc2ccc(F)cc2F)cc1
32	-77%	3.5%	-17	12%	COc1ccc2c(c1)-c1nc(NC(=O)c3ccco3)sc1CC2
33	1%	-0.3%	nt	2%	Cn1c(CN(O)S(=O)(=O)c2ccc(Cl)cc2)nnc1C(F)(F)F
34	-5%	-2.5%	6	12%	O=C(C(c1ccccc1)N1CCOCC1)N1CCOCC1 (stereo unspecified)
35	0%	-1.4%	-12	0%	C/C(=N/NC(=O)c1cc(O)c(O)c(O)c1)c1ccc([N+](=O)[O-])cc1
36	-7%	0.4%	-6	-2%	O=C(Cn1cnc2ccccc2c1=O)N1CCN(c2ccccc2)CC1
37	0%	5.1%	nt	?	CN1CCN(CCCNC(=O)c2ccc3c(Cl)c4c(nc3c2)CCCC4)CC1
38	-4%	-0.2%	9	-18%	CCOCCCNC(=O)c1ccccc1SCC
39	-10%	-5.0%	-2	-2%	COc1ccc(CNc2ncnc3cc(OC)c(OC)cc23)cc1OC
40	nt	1.7%	nt	7%	CC(C)C(=O)N[C@H]1CCC2C3CC=C4C[C@@H](O)CC[C@]4(C)C3CC[C@@]21C (stereo partly specified)

The list goes on:
no.	miR-21 reporter	Rango-impB inh	GLA inh pH 4.5	Rango dissoc inh	mol
41	-8%	0.4%	-1	2%	CCOc1ccccc1OCC(=O)Nc1nnc(COC)s1
42	nt	-2.6%	nt	3%	COc1ccccc1/C=C/C(=O)OCC(=O)c1c[nH]c2ccccc12
43	-4%	-1.7%	nt	8%	COc1cccc(CNC(=O)CCCc2cn(C)c3ccccc23)c1
44	-1%	0.2%	1	-15%	CSCCC(NC(=O)COc1cccc2ccccc12)C(=O)O (stereo unspecified)
45	13%	6.7%	nt	?	COc1c(Br)cc(/C=N/n2c(-c3ccccc3)n[nH]c2=S)c(O)c1Br
46	-14%	0.5%	2	-5%	CCN(CC)CCNC(=S)N1CCn2c(nc3ccccc32)C1
47	1%	-9.0%	nt	-6%	O=C1CSC(c2ccc(F)cc2)N1c1ccccc1F (stereo unspecified)
48	nt	-2.0%	nt	0%	Cc1nc2cc(-c3ccccc3)nn2c(N)c1-c1ccccc1
49	0%	-1.1%	nt	6%	COc1ccccc1N1CCN(C(=O)C2CCN(C(=O)c3ccc(C(C)(C)C)cc3)CC2)CC1
50	0%	1.0%	5	0%	CCOC(=O)c1c(NC(=O)CCc2ccc(CC)o2)sc(C)c1C

Next part
no.	miR-21 reporter	Rango-impB inh	GLA inh pH 4.5	Rango dissoc inh	mol
51	-6%	0.0%	nt	5%	CN(CC(=O)NCC1CCCCC1)S(=O)(=O)c1ccc(F)cc1
52	-3%	0.7%	9	-14%	NC(=O)NC(=O)COC(=O)c1cccc(S(=O)(=O)N2CCCCCC2)c1
53	4%	-3.6%	-5	4%	CC(C)(C)C(=O)Nc1ccccc1C(=O)Nc1cc(Cl)ccc1Cl
54	-5%	-0.3%	-5	-14%	Cc1cc(=O)n2nc(N3CCC(C(=O)NCc4cccnc4)CC3)sc2n1
55	-24%	2.8%	2	-7%	Nc1nc2ccccc2n1C(=O)c1ccco1
56	-6%	3.4%	nt	8%	COc1ccccc1N1CCN(CCCCN2C(=O)C3CCCCN3C2=O)CC1 (stereo unspecified)
57	nt	-1.3%	nt	-3%	O=C(CCCOc1ccccc1)N1CCN(S(=O)(=O)c2ccccc2)CC1
58	-9%	-1.2%	4	-10%	Cc1cccc(N(C)C(=O)C2CCCN2S(=O)(=O)c2cccc3nsnc23)c1 (stereo unspecified)
59	-5%	2.7%	nt	-1%	O=C(CN1C(=O)/C(=C/c2ccc(F)cc2)SC1=S)NC1C=CS(=O)(=O)C1 (stereo unspecified)
60	-1%	0.2%	-3	-7%	OCCNc1ncnc2c1c(-c1ccccc1)c(-c1ccccc1)n2Cc1ccco1

The list continues.
no.	miR-21 reporter	Rango-impB inh	GLA inh pH 4.5	Rango dissoc inh	mol
61	1%	-0.2%	9	9%	CCC(C)n1c(SCC(=O)NCCc2ccc(S(N)(=O)=O)cc2)nc2ccsc2c1=O (stereo unspecified)
62	-2%	-0.9%	4	-4%	Cc1nn(C(=O)Cn2cc([N+](=O)[O-])cn2)c(C)c1Cl
63	-5%	1.4%	-9	22%	Cc1cccnc1Nc1ncnc(N)c1[N+](=O)[O-]
64	nt	3.5%	nt	17%	N#CCCN(C(=O)COC(=O)CCc1c[nH]c2ccccc12)c1ccccc1
65	-25%	5.0%	nt	12%	O=C1NC(=O)/C(=C/c2cccc3ccccc23)S1
66	?	-1.8%	nt	-30%	COc1ccc(CCN2C(=O)CSC2=S)cc1OC
67	-22%	?	-6	-6%	CSc1nsc(SCC(=O)Nc2nc3ccc(C)cc3s2)n1
68	-1%	0.7%	-3	-14%	CSc1nnc(-c2cccs2)n1C
69	-1%	-1.7%	-6	0%	CCOc1ccc(N/C(=N/c2nc(C)cc(C)n2)NC(=O)CC)cc1
70	3%	4.2%	nt	16%	O=S(=O)(c1ccccc1)N1CCN(C(=S)Nc2ccccc2Cl)CC1

2 compounds picked at random from those above, as already listed:
no.	miR-21 reporter	Rango-impB inh	GLA inh pH 4.5	Rango dissoc inh	mol
54	-5%	-0.3%	-5	-14%	Cc1cc(=O)n2nc(N3CCC(C(=O)NCc4cccnc4)CC3)sc2n1
33	1%	-0.3%	nt	2%	Cn1c(CN(O)S(=O)(=O)c2ccc(Cl)cc2)nnc1C(F)(F)F

Two of the compounds above, screen by screen:
62) Cc1nn(C(=O)Cn2cc([N+](=O)[O-])cn2)c(C)c1Cl
63) Cc1cccnc1Nc1ncnc(N)c1[N+](=O)[O-]

| compound no. | 62 | 63 |
| --- | --- | --- |
| miR-21 reporter | -2% | -5% |
| Rango-impB inh | -0.9% | 1.4% |
| GLA inh pH 4.5 | 4 | -9 |
| Rango dissoc inh | -4% | 22% |

Quoted from the listing.
CSc1nnc(-c2cccs2)n1C in GLA inh pH 4.5 shows -3
N#CCCN(C(=O)COC(=O)CCc1c[nH]c2ccccc12)c1ccccc1 in Rango dissoc inh shows 17%

Given bar-delimited: entries from further up.
cpd | canonical_smiles | miR-21 reporter | Rango-impB inh | GLA inh pH 4.5 | Rango dissoc inh
62 | Cc1nn(C(=O)Cn2cc([N+](=O)[O-])cn2)c(C)c1Cl | -2% | -0.9% | 4 | -4%
61 | CCC(C)n1c(SCC(=O)NCCc2ccc(S(N)(=O)=O)cc2)nc2ccsc2c1=O (stereo unspecified) | 1% | -0.2% | 9 | 9%
63 | Cc1cccnc1Nc1ncnc(N)c1[N+](=O)[O-] | -5% | 1.4% | -9 | 22%
65 | O=C1NC(=O)/C(=C/c2cccc3ccccc23)S1 | -25% | 5.0% | nt | 12%

(next part)
no.	miR-21 reporter	Rango-impB inh	GLA inh pH 4.5	Rango dissoc inh	mol
71	-1%&-4%	0.4%	-2	16%	CCCCN(C)CCNC(=O)c1nn(-c2ccc(OC)cc2)c(=O)c2c1c1ccccc1n2C
72	-6%	-0.9%	-3	-4%	CCCCNC(=O)CSc1nc2ccccc2c(=O)n1C1CCCC1
73	8%	0.7%	nt	-2%	COc1ccc(C)cc1N(CC(=O)NCCSCc1ccco1)S(=O)(=O)c1ccc(C)cc1
74	-8%	-0.4%	nt	7%	Cc1onc(C(=O)NCCc2ccccc2)c1[N+](=O)[O-]

Bioassay records: PubChem, National Center for Advancing Translational Sciences (NCATS)

This is a subset. The share of hits here may be higher or lower than overall.
